# Rango complex inh = qHTS Assay for Inhibitors of Rango (Ran-regulated importin-beta cargo) - Importin beta complex formation. Rango CFP/YFP FRET sensor + importin beta, 45 min. Potency, µM (top dose mostly 92.2 µM), for the others: top-dose inhibition of complex formation. hit rate 0.031% among 340,000. AID 540263, 2011; active = rising FRET ratio curve, often small or poorly fitted; inconclusive = mostly compound fluorescence or quenching in the first reads; inactive = flat curves in all reads;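 note: potency is the fitted concentration of half-maximal effect; 0% = DMSO wells and 100% = buffer wells lacking importin beta; nearly all actives have a fitted effect of over 15% in size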
# Target sequence (Q14974 whole entry, looked up): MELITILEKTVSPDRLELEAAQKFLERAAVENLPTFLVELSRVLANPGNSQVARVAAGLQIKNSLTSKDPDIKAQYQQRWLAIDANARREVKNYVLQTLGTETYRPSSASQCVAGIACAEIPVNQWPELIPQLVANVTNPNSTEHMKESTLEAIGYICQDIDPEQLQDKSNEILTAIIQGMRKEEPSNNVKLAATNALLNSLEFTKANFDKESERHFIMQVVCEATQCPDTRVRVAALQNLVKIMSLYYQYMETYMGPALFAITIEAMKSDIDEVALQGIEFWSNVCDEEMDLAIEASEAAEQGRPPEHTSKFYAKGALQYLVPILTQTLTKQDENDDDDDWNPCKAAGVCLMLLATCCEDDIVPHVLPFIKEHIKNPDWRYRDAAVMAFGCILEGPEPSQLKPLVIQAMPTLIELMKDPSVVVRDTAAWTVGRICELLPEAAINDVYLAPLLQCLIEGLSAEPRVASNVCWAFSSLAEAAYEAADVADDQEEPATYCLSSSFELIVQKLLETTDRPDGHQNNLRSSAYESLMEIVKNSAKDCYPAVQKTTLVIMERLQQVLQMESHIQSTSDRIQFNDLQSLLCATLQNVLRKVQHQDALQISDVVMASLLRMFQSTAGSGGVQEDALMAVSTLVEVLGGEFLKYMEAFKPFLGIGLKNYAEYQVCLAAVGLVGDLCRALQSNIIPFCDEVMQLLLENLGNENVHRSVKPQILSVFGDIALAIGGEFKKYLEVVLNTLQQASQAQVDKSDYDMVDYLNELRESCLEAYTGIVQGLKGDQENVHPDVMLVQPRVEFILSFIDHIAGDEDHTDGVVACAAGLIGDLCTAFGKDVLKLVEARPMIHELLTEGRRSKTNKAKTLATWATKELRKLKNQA
#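 FRET biosensor Rango (snurportin 1 IBB between N-terminal EYFP and C-terminal Cerulean), 50 nM in PBS/1 mM DTT/0.02% Tween-20/0.1% BSA, preincubated 5 min RT with compound; 0.125 microM importin beta added, 45 min RT, CFP/YFP FRET ratio read.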
# miR-21 reporter = qHTS Assay for Modulators of miRNAs and/orActivators of miR-21. HeLa miR-21 FLuc reporter, luciferase, 48 h. Potency, µM (top dose mostly 38.3 µM), for inactives: at the highest dose reporter change, positive = more light. 340,000 tested, under 10 active; active = well fitted rising curve with a large enough effect; inconclusive = small, poorly fitted or top-dose-only effect; inactive = no such curve, though single readings can be large or run the other way;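 note: % of control where 0% means no effect; miR-21 action dims this reporter so a rising signal means less miR-21 action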
#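 Luminescence from a firefly luciferase reporter carrying a miR-21 binding site downstream, stably expressed under a CMV promoter in HeLa cells that make miR-21 endogenously, reports miRNA modulation after 48 h compound exposure up to approximately 40uM final.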
# GLA inh pH 4.5 = qHTS Assay for Inhibitors of Human alpha-Galactosidase at pH 4.5; Alpha-galactosidase A (Homo sapiens), P06280; purified enzyme, 4-MU-alpha-Gal fluorescence, pH 4.5; activity change, negative = inhibition, % at 105 µM; 230,000 tested, under 10 active; inconclusive = small, poorly fitted or top-dose-only inhibition, or a rising curve; inactive = flat fitted curve, though single readings scatter; no compound was filed as active;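 note: 0% = full activity with enzyme and -100% = basal without enzyme; dose as in the result columns while the protocol names 77 µM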
# Rango release inh = qHTS Assay for Inhibitors of RanGTP induced Rango (Ran-regulated importin-beta cargo) - Importin beta complex dissociation; Snurportin-1 (Homo sapiens) + GTP-binding nuclear protein Ran (Homo sapiens) + Importin …; Biochemical FRET Rango-importin beta, RanGTP-induced dissociation; Potency, µM (top dose mostly 46.1 µM), for the others: at the highest dose activity change, negative = inhibition; hit rate 0.071% among 340,000; active means falling FRET ratio curve, often poorly fitted, with flat reads before Ran was added; inconclusive means other falling curves, or compound fluorescence or quenching; inactive means flat or rising ratio curve;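 note: potency is the fitted concentration of half-maximal effect; % of control where 0% means no effect; nearly all actives have a fitted effect of over 45% in size; -100% = wells without RanGTP and RCC1; the record marks most hits as doubtful in a second field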
#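 FRET read at 45 min, room temperature: inhibitors block the CFP/YFP signal rise when RanGTP (0.6 uM Ran, 2 mM GTP, 0.2 uM RCC1) frees Rango (0.1 uM) from importin beta (0.25 uM). Pre-read after 5 min compound exposure flags interference.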
# The depositor's hits bear a star; ? = inconclusive; nt = not tested or not shown; & = joins results of further samples. An excerpt; the hit share may differ from the screen's.
# Under each structure: Rango release inh, miR-21 reporter, GLA inh pH 4.5, Rango complex inh
- CCCCN1C[C@H](O)[C@@H](O)[C@H](O)[C@H]1CO
→ 18%, 2%, nt, -7.5%
- COc1ccc(CC(=O)Nc2cc(S(=O)(=O)N3CCCCC3)ccc2C)cc1
→ -8%, nt, nt, -0.8%
- Cc1cc(C)cc(N2C(=O)N(c3ccccc3C)C3CS(=O)(=O)CC32)c1 (configuration not stated)
→ -3%, -5%, -20, -0.8%
- COc1c(Cl)cc(C(=O)NCc2ccco2)cc1Cl
→ 0%, 1%, nt, -1.2%
- CCOC(=O)c1cccc(NC(=O)c2ccccc2C)c1
→ 6%, -13%, -4, 3.0%
- Cc1nc(SCC(=O)Nc2ccc3c(c2)OCCO3)nc(C)c1C
→ 26%, -26%, -2, -3.3%
- CCN(CC)CCNC(=O)c1cc2ccccc2nc1Cl
→ 15%, 1%, -9, -0.1%
- COc1ccc(C(CNC(=O)c2ccc(-c3ccccc3)cc2)N(C)C)cc1OC (configuration not stated)
→ -4%, -26%, nt, -0.5%
- CC(=O)n1nc(-c2ccc(C)cc2)nc1NCc1ccc(F)cc1
→ 6%, -15%, -16, 2.9%
- Cc1cc(C)nc(NS(=O)(=O)c2ccc(N/C=C\C(=O)c3ccc(Cl)cc3)cc2)n1
→ ?, -33%, -12, ?
- CCN(c1cccc(C)c1)c1nc2ccsc2c(=O)s1
→ -7%, -13%, -15, -0.9%
- CCOc1ccc(NC(=S)c2ccc3ccccc3n2)cc1
→ -16%, -17%, nt, -0.6%
- CC(C)CCNC(=O)c1ccc(Cl)c(NC(=O)Cc2ccccc2)c1
→ nt, -23%, 0, nt
- CC1(C)Cc2ccccc2C(/C(C#N)=N/O)=N1
→ -11%, -4%, 0, -0.9%
- CN(C)S(=O)(=O)N1CCC(Oc2cccc(C(=O)N3CCCCCC3)c2)CC1
→ 13%, 2%, nt, -2.0%
- COc1ccc(C(=O)OCC(=O)Nc2cccc(C(C)=O)c2)cc1OC
→ 20%, -1%, nt, 2.6%
- COc1ccc(Nc2nc(-c3ccccc3)cs2)cc1
→ -7%, -34%, 1, 0.3%
- COc1ccc(C(=O)O)cc1NC(=S)NC(=O)/C=C/c1ccc(C(C)C)cc1
→ -1%, -24%, nt, -0.7%
- CC(OC(=O)CNC(=O)C12CC3CC(CC(C3)C1)C2)C(=O)Nc1ncc(Cl)cc1Cl (configuration not stated)
→ 2%, 12%, -3, 2.0%
- Cc1ccc(-n2c(O)c(C=NC3CCS(=O)(=O)C3)c3ccccc3c2=O)c(C)c1 (configuration not stated)
→ 17%, 3%, -5, -1.1%
- COc1ccccc1-n1c(SCC(=O)NC(C)(C)C)nc(O)c(Cc2ccccc2)c1=O
→ 12%, -5%, 1, 2.8%
- COc1ccc(-c2nc(C#N)c(N3CCc4ccccc4C3)o2)cc1OC
→ 11%, -14%, 8, 3.1%
- CCC(=O)NCC(=O)OCC(=O)c1ccccc1
→ -3%, -6%, -6, 0.0%
- CCN(CC(=O)NCCc1ccc(Cl)cc1)Cc1nc2ccccc2c(=O)[nH]1
→ 14%, 2%, -11, -0.6%
- CN(C)c1ccc(/C=N/NC(=S)NCc2ccccc2)cc1
→ -8%, -39%, 6, 0.0%
- C=CCn1c(SCC#N)nnc1-c1ccc2ncccc2c1
→ 2%, -6%, 0, -0.2%
- O=C(O)Cn1c(CC(=O)N2CCCC2)nc2ccccc21
→ 3%, -1%, 3, -0.8%
- COc1ccc(CCNC(=O)C2CCCN(c3nn4c(=O)cc(C)nc4s3)C2)cc1OC (configuration not stated)
→ 7%, 1%, 4, -2.6%
- COc1ccc(N2CCN(C(=O)CCc3cc(OC)c(OC)c(OC)c3)CC2)cc1
→ -8%, -3%, nt, -4.5%
- O=C(Cc1cccc(NC(=O)C2CCCN(C(=O)c3ccccc3)C2)c1)Nc1ccc(C(=O)N2CCOCC2)cc1 (configuration not stated)
→ -8%, nt, nt, -1.3%
- CCN1CCN(c2ccc(NC(=O)c3ccccc3F)cc2Cl)CC1
→ 1%, -62%, -1, 0.8%
- CCS(=O)(=O)NCC(c1cccnc1)N1CCN(c2ccccc2F)CC1 (configuration not stated)
→ -2%, -2%, -3, -0.1%
- O=C(/C=C/c1c(Cl)cccc1Cl)NCCc1ccccc1
→ 9%, -33%, 1, -1.2%
- O=c1c([N+](=O)[O-])c(O)c2cccc3c2n1CCC3
→ -25%, 1%, nt, -4.8%
- CCC(=O)C1CCCN(C(=O)c2ccc(OC3CCN(C(=O)c4cccnc4)CC3)cc2)C1 (configuration not stated)
→ 0%, 1%, 10, -0.6%
- OC(CNc1ccccc1)Cn1ccc2ccccc21 (configuration not stated)
→ 6%, -9%, -2, -8.1%
- COCCNc1nc2c(c(=O)[nH]c(=O)n2C)n1CCCc1ccccc1
→ -20%, -3%, nt, -0.2%
- CCO[C@H]1OC(C(=O)N2CCOCC2)=C[C@@H](c2ccc(Br)cc2)[C@@H]1CCCO
→ 22%, -2%, 7, 2.2%
- Cc1ccsc1/C=C(\C(=O)c1ccc(OC(C)C)cc1)c1nc2ccccc2o1
→ -12%, -5%, 5, ?
- CC(C)(C)OC(=O)C[C@H]1C/C=C\C[C@@H](CC(=O)N[C@@H](CO)Cc2ccccc2)C(=O)NCCOC1=O
→ 10%, nt, nt, 0.1%

# Structures listed so far with a COOH group, in the order listed:
# Under each structure: Rango release inh, miR-21 reporter, GLA inh pH 4.5, Rango complex inh
- COc1ccc(C(=O)O)cc1NC(=S)NC(=O)/C=C/c1ccc(C(C)C)cc1
→ -1%, -24%, nt, -0.7%
- O=C(O)Cn1c(CC(=O)N2CCCC2)nc2ccccc21
→ 3%, -1%, 3, -0.8%

# Additional entries.
# Under each structure: Rango release inh, miR-21 reporter, GLA inh pH 4.5, Rango complex inh
- Cc1cc(O)c(C(C)C)cc1C1(c2cc(C(C)C)c(O)cc2C)OC(=O)c2ccccc21
→ 22%, ?, -27, -2.3%
- CCc1c(O)nc(SCC(=O)NCc2ccco2)[nH]c1=O
→ 18%, -2%, 1, -0.8%
- COC(=O)C1=C(COc2ccc(C=O)cc2OC)NC(=O)NC1c1cc(C)ccc1C (configuration not stated)
→ -11%, -2%, -8, ?
- CCOc1ccc(Nc2oc(-c3ccccc3Cl)nc2C#N)cc1
→ 3%, -7%, 4, 3.0%
- Cc1nnc(N/N=C/c2cccc(OCc3ccc(Cl)c(Cl)c3)c2)n1N
→ 10%, -38%, -3, 7.0%
- COc1ccc(CNC(=O)CN(Cc2ccc(Cl)cc2)S(C)(=O)=O)cc1
→ 1%, -1%, 0, 4.6%
- CCOC(=O)c1c(N)sc2c(OCC)c(Br)ccc12
→ -8%, -17%, -16, 2.0%
- O=C1O[C@@H](c2ccc(O)cc2)Cc2cccc(O)c21
→ 17%, nt, nt, 1.4%
- CN(C)S(=O)(=O)c1ccc(NC(=O)CN2CCN(C(c3ccccc3)c3ccccc3)CC2)cc1
→ 1%, -5%, 3, -2.1%
- CC1=C(C#N)C(c2cccnc2)C2=C(CCCC2=O)N1 (configuration not stated)
→ ?, -5%, ?, -7.6%
- O=C(CSc1ccc2nnc(-c3cccc(F)c3)n2n1)NCC1CCCO1 (configuration not stated)
→ -3%, 0%, 6, 0.7%
- Cc1nc2ccc(NC(=O)Cc3ccc4c(c3)OCCO4)cc2s1
→ -8%, -26%, -15, -3.8%
- CCCn1ncc(CN2CCC(n3nccc3NC(=O)c3ccccc3OC)CC2)c1C
→ 10%, -2%, nt, -0.5%
- CCn1cnc2cc(NCc3ccc(OC)cc3)ccc21
→ 0%, -52%, 7, 1.3%
- O=c1[nH]ccc2c(O)cccc12
→ -1%, nt, 2, 0.1%
- COc1cc2c(cc1OC)-c1cc(OCc3cccnc3)nc(=O)n1CC2
→ -1%, -15%, 15, -2.1%
- O=C1c2ccccc2C(=O)N1Cc1ccccn1
→ 2%, -3%, -3, 3.6%
- COc1ccc(C(=O)N2CC(=O)N(CCc3ccccc3)C(=O)C2)cc1OC
→ 1%, -3%, -2, -0.7%
- CS(=O)(=O)c1ccc(C(=O)OCc2nnc(-c3ccccc3)o2)cc1[N+](=O)[O-]
→ 5%, ?, 8, -0.3%
- CC(=O)c1ccccc1C(=O)N1CCCC(CNC(=O)c2ccccc2Cl)C1 (configuration not stated)
→ 17%, -15%, nt, 1.5%
- COC(OC)C1Nc2ccccc2C(=O)N1c1ccc(F)cc1 (configuration not stated)
→ 5%, nt, nt, 2.2%
- COc1ccc(S(=O)(=O)NCC(c2cccnc2)N2CCN(Cc3ccccc3)CC2)cc1 (configuration not stated)
→ -1%, -1%, nt, -0.8%
- Cc1ccc(Cc2cncc(O)c2)cc1S(=O)(=O)O
→ -6%, -3%, 4, -2.9%
- Cc1ccccc1C(N)c1ccncc1 (configuration not stated)
→ -6%, 2%, nt, -6.6%
- CCOc1ccc(N2CC(C(=O)NCCc3ccc(S(N)(=O)=O)cc3)CC2=O)cc1 (configuration not stated)
→ -5%, 0%, nt, 4.9%
- COc1ccc(NS(=O)(=O)c2cccc(C(=O)Nc3ccccc3C(=O)O)c2)cc1
→ 1%, 6%, nt, -0.2%
- CCOc1ccccc1/C=N/n1c(C2CCCCC2)n[nH]c1=S
→ 5%, 6%, nt, 2.1%
- CC(=O)Nc1cccc(NC(=O)Cc2ccc3ccccc3c2)c1
→ 9%, -1%, nt, -0.2%
- Cc1cc(C)c(S(=O)(=O)NCC(c2cccnc2)N2CCN(Cc3ccccc3)CC2)c(C)c1 (configuration not stated)
→ -2%, 0%, nt, -0.3%
- CCCN(CCC)CCCNC(=O)c1cn(CC)c2ccc(S(=O)(=O)N3CCc4ccccc4C3)cc2c1=O
→ -6%, -2%&-3%, -9, 2.3%
- CSc1sc(C(=O)O)c(C)c1C(C)=O
→ -1%, 0%, 5, 0.1%
- CCCNc1nc(-c2cc(-c3ccc(Cl)cc3)on2)cc(C(C)C)n1
→ 1%, 3%, 1, 1.5%
- CC(=O)[C@H]1CC[C@H]2[C@@H]3CCC4=CC(=O)CC[C@]4(C)[C@H]3[C@H](O)C[C@]12C
→ -3%, 3%, nt, 9.5%
- Cc1ccc(Cn2c(C(CO)Nc3nc(-c4ccc(F)cc4)cs3)nc3ccccc32)cc1 (configuration not stated)
→ -7%, nt, nt, 0.0%
- O=C(CN1C(=O)S/C(=C/c2ccncc2)C1=O)N1CCOCC1
→ 5%, -7%, -4, -0.7%
- CCCCC(=O)Nc1ccc(NC(=O)C(C)C)cn1
→ -3%, -38%, -3, -1.5%
- CCOc1ccc(NC(=O)CN(c2ccc(OC)cc2)S(=O)(=O)c2cccs2)cc1
→ -17%, nt, nt, -1.0%
- COc1ccc(O)c(C(=O)c2cc(C(=O)NCCc3ccccc3)c(=O)n(CCc3ccccc3)c2)c1
→ -10%, 18%, -1, -3.5%
- COc1ccc(CC(=O)OCC(=O)Nc2ncc(Cl)cc2Cl)cc1
→ 2%, 3%, 2, -1.8%
- CN(C)c1ccc(C(=O)NCC2CCCO2)cc1 (configuration not stated)
→ 33%, -51%, 0, -0.6%
- Cn1cc(S(=O)(=O)c2ccccc2)c(=O)c2cc(F)c(N3CCOCC3)cc21
→ 23%, -9%&-11%, nt, 9.8%
- Cc1ccc(NCC(=O)Nc2c(C)n(C)n(-c3ccccc3)c2=O)cc1S(=O)(=O)N(C)C
→ -6%, 0%, -2, 0.0%
- Cc1ccc(CN(C)CC(=O)Nc2ccccc2C(=O)NC2CC2)o1
→ 14%, nt, nt, 4.2%
- Cc1cc(C)n2nc(C(=O)N/N=C/c3c4ccccc4cc4ccccc34)nc2n1
→ ?, -8%, 6, ?
- C/C(=N\NC(=O)c1ccccc1)c1ccccc1Br
→ 5%, -51%, 4, 0.3%
- COC(=O)CSc1nnc(CNc2ccc(OC)cc2)n1C
→ -10%, 0%, -5, ?
- O=C(NCc1ccc(Cl)cc1)c1cc2ccccc2oc1=O
→ -3%, -9%, nt, -2.8%
- COc1cc(NC(=O)C2CC(c3c(F)cccc3Cl)=NO2)cc(OC)c1OC (configuration not stated)
→ 1%, ?, nt, -2.1%

# Source: PubChem BioAssay
